BJeLR viab HTS: lowers viability of BJeLR cells; viability loss activity score, % (no concentration beside the values); AID 2275; BJeLR fibroblasts viability, CellTiterGlo ATP luminescence, 48 h; HRASV12, hTERT and SV40 LT/ST transformed; actives 0.64% (n = 30,000); in the data active = viability loss activity score above about 50%; about a fifth of its hits are not listed in these tables;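 also: higher score means fewer live cells and less ATP luminescence; stock transfer was 50 or 100 nL into about 30 µL; 0% = vehicle wells and 100% = a reference killing control; one replicate is shown; the record names a cut of 85%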
A1 inhib: A1 inhibition; MEF A1-2A-BIM cells, caspase-Glo luminescence, 3 h; percent of clofoctol signal, DMSO as zero; caspase activation, % (no concentration beside the values); actives 0.51% (n = 21,000); AID 2241;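 active = most replicate scores above 10, or exactly half above 10 with mean activity above 10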;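 also: effector caspase 3 and 7 activity cleaving a DEVD luciferin substrate; 50 nL library stock added to about 30 µL; numbers are from one replicate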
The depositor's hits bear a star; nt = not tested or not shown. Not all compounds are listed; count on the stated rates, not on these rows.

SMILES	BJeLR viab HTS	A1 inhib
C[C@@H]1CN([C@@H](C)CO)C(=O)c2cc(NC(=O)Cc3ccccc3)ccc2O[C@@H]1CN(C)C	1.2	0.4
C[C@H]1CN([C@@H](C)CO)C(=O)c2cc(NC(=O)Cc3ccccc3)ccc2O[C@H]1CN(C)S(=O)(=O)c1cn(C)cn1	0.7	-0.9
C[C@H]1CN([C@@H](C)CO)C(=O)c2cc(NS(=O)(=O)c3cn(C)cn3)ccc2O[C@@H]1CN(C)Cc1ccc(C(F)(F)F)cc1	1.9	-0.9
O=C(NCCc1cn2ccccc2n1)c1cccc(C(F)(F)F)c1	1.6	0.2
O=C(NCCN1CCCCC1)Nc1cccc2ccccc12	4.2	0.9
C[C@H](CO)N1C[C@H](C)[C@H](CN(C)C(=O)Nc2ccc(C(F)(F)F)cc2)Oc2c(NS(=O)(=O)c3ccc(F)cc3)cccc2C1=O	1.4	nt
c1ccc2c(c1)nc1n2CN(C2CCCCC2)CN1	-0.3	nt
C[C@@H]1CN([C@@H](C)CO)C(=O)c2cccc(NC(=O)C3CC3)c2O[C@H]1CN(C)S(=O)(=O)c1ccc(F)cc1	8.6	nt
COc1ccccc1N1CCN(CCCCN2C(=O)CCC2=O)CC1	0.8	-0.4
Cc1ccc(S(=O)(=O)Nc2cccc3c2O[C@@H](CN(C)C(=O)Nc2ccc4c(c2)OCO4)[C@@H](C)CN([C@H](C)CO)C3=O)cc1	-0.7	nt
CNC(=O)CN(c1cccc(C)c1C)S(=O)(=O)c1ccccc1	4.1	-0.1
C[C@@H]1CN([C@@H](C)CO)C(=O)c2cc(NC(=O)c3ccncc3)ccc2O[C@H]1CN(C)Cc1ccc(C(=O)O)cc1	1.7	1.4
Cc1cc2ncn(C(=O)c3c(-c4ccccc4Cl)noc3C)c2cc1C	1.5	nt
Cc1nc(C23CC4CC(CC(C4)C2)C3)[nH]c(=O)c1Cl	1.0	-1.2
C[C@H](CO)N1C[C@H](C)[C@H](CN(C)C)Oc2ccc(NC(=O)CCC(F)(F)F)cc2C1=O	-2.4	0.2
CSc1c(CC(=O)Nc2ccc(C)cc2)[nH]c2ccccc12	1.1	0.4
CCCCn1c(SCC(=O)Nc2ccc(OC)cc2)nc2ccc(N3CCOCC3)cc2c1=O	-4.1	0.6
Cc1nnc(Sc2cc(C(=O)NC3CC3)c3ccccc3n2)s1	0.5	1.1
O=S(=O)(Nc1nc2ccccc2nc1NCCc1ccccc1)c1ccc(Cl)cc1	7.3	0.0
COc1ccc(S(=O)(=O)Nc2ccc3c(c2)C(=O)N([C@H](C)CO)C[C@@H](C)[C@@H](CN(C)C(=O)Nc2ccc(F)cc2)O3)cc1	-1.8	0.4
C[C@@H]1CN([C@@H](C)CO)C(=O)c2cccc(N(C)C)c2O[C@H]1CN(C)C(=O)Nc1ccccc1	4.0	nt
c1ccc2[nH]c(C34CC5CC(CC(C5)C3)C4)cc2c1	-4.2	5.2
COc1cc(C(=O)NCCC(=O)N2CCN(C)CC2)cc(OC)c1OC	-1.3	0.5
C[C@@H]1CN([C@@H](C)CO)C(=O)c2cc(NS(=O)(=O)c3cccs3)ccc2O[C@@H]1CN(C)S(=O)(=O)c1ccc(F)cc1	-3.4	0.2
Cc1noc(C)c1NC(=O)N(C)C[C@H]1Oc2ccc(NC(=O)Cc3ccccc3)cc2C(=O)N([C@H](C)CO)C[C@H]1C	-1.3	0.3
COC(=O)C1=CO[C@@H](O[C@@H]2O[C@H](CO)[C@@H](O)[C@H](O)[C@H]2O)[C@H]2[C@@H]1C=CC21C=C(C(C)O)C(=O)O1 (stereo not given in full)	-1.9	0.1
CCCCc1cc(CCCC)n2nc(-c3ccccc3)cc2n1	-5.5	-0.3
C[C@@H]1CN([C@@H](C)CO)C(=O)c2cccc(NC(=O)c3nc4ccccc4s3)c2O[C@H]1CN(C)C(=O)NC1CCCCC1	-6.7	nt
CC(C)c1c(C#N)c(N)nc(SCC(N)=O)c1C#N	-0.4	0.6
O=C1N/C(=N\O)S/C1=C/c1ccc(O)cc1	0.5	nt
C[C@@H]1CN([C@@H](C)CO)C(=O)c2cc(NC(=O)C3CC3)ccc2O[C@H]1CN(C)Cc1ccc(-c2ccccc2)cc1	-1.3	-0.4
C[C@@H]1CN([C@H](C)CO)C(=O)c2cc(NC(=O)Nc3ccc(C(F)(F)F)cc3)ccc2O[C@@H]1CN(C)CC1CC1	5.3	-1.0
N#Cc1c2c(c(NCCN3CCCCC3)n3c1nc1ccccc13)CCC2	-1.2	0.3
C[C@H]1CN([C@@H](C)CO)C(=O)c2cc(NC(=O)c3ccncc3)ccc2O[C@H]1CN(C)Cc1ccccc1	2.1	-0.2
CCC(=O)OCC(=O)[C@@]1(OC(=O)CC)[C@@H](C)CC2C3CCC4=CC(=O)C=C[C@]4(C)C3(F)[C@@H](O)C[C@@]21C (stereo not given in full)	-7.8	0.5
C[C@H]1CN([C@@H](C)CO)C(=O)c2cc(N(C)C)ccc2O[C@H]1CN(C)CC1CCCCC1	-0.6	0.1
O=c1cc(-c2ccco2)oc2c1ccc1ccccc12	0.0	-0.5
O=c1cc(-c2ccccc2)nc2cc(-c3ccccc3)[nH]n12	-3.3	-4.8
COc1ccc(S(=O)(=O)N(C)C[C@@H]2Oc3c(NC(=O)c4cnccn4)cccc3C(=O)N([C@@H](C)CO)C[C@H]2C)cc1	1.5	nt
CC1OC(OCC2OC(Oc3c(-c4ccc(O)cc4)oc4cc(O)cc(O)c4c3=O)C(O)C(O)C2O)C(O)C(O)C1O (stereo not given)	-5.1	0.3
C[C@@H]1CN([C@@H](C)CO)C(=O)c2cc(NC(=O)Cn3cnnn3)ccc2O[C@H]1CN(C)S(=O)(=O)c1cn(C)cn1	2.0	-0.2
Cc1nn(C)c2sc(C(=O)NC3CCCCNC3=O)cc12 (stereo not given)	3.2	0.0
O=c1cnnc(Nc2ccccc2)[nH]1	-1.3	nt
Cc1cc2c3c(c1)c(-c1ccccc1)c(C)n3CCC2	-2.3	0.4
C[C@H]1CN([C@@H](C)CO)C(=O)c2cc(N(C)C)ccc2O[C@H]1CN(C)S(C)(=O)=O	-2.7	0.9
C[C@H](CO)N1C[C@H](C)[C@H](CN(C)C(=O)Nc2ccc(F)cc2)Oc2c(NS(=O)(=O)c3cccs3)cccc2C1=O	1.9	nt
Nc1ccccc1N1C(=O)c2ccccc2C1=O	3.5	1.0
COC(=O)c1nnn(CC(=O)Nc2ccc(OC)cc2)c1N	-7.9	nt
C[C@@H]1CN([C@H](C)CO)C(=O)c2cccc(N(C)C)c2O[C@H]1CN(C)C(=O)Nc1ccc(C(F)(F)F)cc1	-1.6	nt
C[C@@H]1CN([C@H](C)CO)C(=O)c2cccc(NS(C)(=O)=O)c2O[C@H]1CN(C)C	-0.8	nt

Entries of single compounds from above. Order of values: BJeLR viab HTS	A1 inhib
`Cc1cc2c3c(c1)c(-c1ccccc1)c(C)n3CCC2` reads -2.3	0.4
`C[C@H]1CN([C@@H](C)CO)C(=O)c2cc(N(C)C)ccc2O[C@H]1CN(C)S(C)(=O)=O` reads -2.7	0.9
`C[C@H](CO)N1C[C@H](C)[C@H](CN(C)C(=O)Nc2ccc(F)cc2)Oc2c(NS(=O)(=O)c3cccs3)cccc2C1=O` reads 1.9	nt

Next structures.
SMILES	BJeLR viab HTS	A1 inhib
CC(C)NC(=O)N(C)C[C@H]1Oc2c(NC(=O)c3nc4ccccc4s3)cccc2C(=O)N([C@@H](C)CO)C[C@@H]1C	-0.5	nt
c1ccc(-c2nnc(-c3cccc4ccccc34)o2)cc1	-8.5	-6.0
C/C=C1/[C@H](O[C@@H]2O[C@H](CO)[C@@H](O)[C@H](O)[C@H]2O)OC=C(C(=O)OC)[C@H]1CC(=O)OCC(C)[C@@H]1C[C@H]2OC(=O)C3=CO[C@@H](O[C@@H]4O[C@H](CO)[C@@H](O)[C@H](O)[C@H]4O)/C(=C/C)[C@@H]3CC(=O)OC[C@@H]1[C@H]2C (stereo not given in full)	-6.8	-0.3
Cc1noc(C)c1NC(=O)N(C)C[C@H]1Oc2c(cccc2N(C)C)C(=O)N([C@H](C)CO)C[C@@H]1C	-4.7	nt
Cc1ccc(CC(C(=O)O)C(C)C(=O)Nc2ccc(F)cc2)cc1 (stereo not given)	2.8	0.8
C[C@H]1CN([C@@H](C)CO)C(=O)c2cc(NC(=O)NC3CCCCC3)ccc2O[C@@H]1CN(C)Cc1ccc(Cl)c(Cl)c1	-4.3	0.1
C[C@@H]1CN([C@@H](C)CO)C(=O)c2cc(NC(=O)Nc3ccc4c(c3)OCO4)ccc2O[C@@H]1CN(C)C(=O)NC1CCCCC1	-1.3	0.0
O=C1CC(c2ccccc2)OC12CCCCC2 (stereo not given)	-0.3	0.5
C[C@H](CO)N1C[C@H](C)[C@@H](CN(C)C(=O)Nc2ccc(F)cc2)Oc2ccc(NC(=O)C3CCCCC3)cc2C1=O	1.2	0.3
O=C1CCCC(O)=C1C=Nc1cccc2ccccc12	0.8	0.9

The final 4 entries of the part above come first, to join the parts:
SMILES	BJeLR viab HTS	A1 inhib
C[C@@H]1CN([C@@H](C)CO)C(=O)c2cc(NC(=O)Nc3ccc4c(c3)OCO4)ccc2O[C@@H]1CN(C)C(=O)NC1CCCCC1	-1.3	0.0
O=C1CC(c2ccccc2)OC12CCCCC2 (stereo not given)	-0.3	0.5
C[C@H](CO)N1C[C@H](C)[C@@H](CN(C)C(=O)Nc2ccc(F)cc2)Oc2ccc(NC(=O)C3CCCCC3)cc2C1=O	1.2	0.3
O=C1CCCC(O)=C1C=Nc1cccc2ccccc12	0.8	0.9
C[C@H](CO)N1C[C@H](C)[C@H](CN(C)Cc2ccc(C(F)(F)F)cc2)Oc2ccc(NC(=O)Nc3ccc(F)cc3)cc2C1=O	-1.0	-1.8
C[C@@H]1CN([C@H](C)CO)C(=O)c2cccc(N(C)C)c2O[C@H]1CN(C)S(=O)(=O)c1cn(C)cn1	1.7	nt
CCn1c2ccccc2c2cc(CN3CCN(C(=O)c4c(OC)cccc4OC)CC3)ccc21	1.4	-0.1
CC(=O)N[N+]1=C(N)c2ccccc2C1	3.7	0.1
C[C@@H]1CN([C@H](C)CO)C(=O)c2cc(NC(=O)Cc3cn(C)c4ccccc34)ccc2O[C@@H]1CN(C)S(C)(=O)=O	-0.4	-0.5
COc1cc2c(=O)c(-c3ccc(O)cc3)coc2cc1O[C@@H]1O[C@@H](C)[C@H](O)[C@@H](O)[C@H]1O	-7.0	0.0
CCC(=O)c1ccc2cc(OC)ccc2c1	-1.8	-2.7
Cc1cc(C(=O)Nc2cccc3c2O[C@H](CN(C)Cc2ccc(C(=O)O)cc2)[C@H](C)CN([C@@H](C)CO)C3=O)n(C)n1	-2.9	nt
Cc1ccc(N(CC(=O)NC(c2ccccc2)c2ccccc2)S(=O)(=O)N2CCCC2)cc1	-5.0	1.0
COc1ccc(S(=O)(=O)Nc2cccc3c2O[C@H](CN(C)Cc2ccc(Cl)c(Cl)c2)[C@H](C)CN([C@H](C)CO)C3=O)cc1	1.7	nt
COc1ccc(NC(=O)Nc2ccc3c(c2)C(=O)N([C@@H](C)CO)C[C@H](C)[C@@H](CN(C)S(=O)(=O)c2ccc(F)cc2)O3)cc1	-2.6	-0.2
C[C@@H]1CN([C@@H](C)CO)C(=O)c2cccc(NC(=O)Nc3ccc(F)cc3)c2O[C@@H]1CN(C)S(=O)(=O)c1cccs1	3.2	nt
CCC(=O)N1CCCc2cc(S(=O)(=O)N3CCN(C4CCCCC4)CC3)ccc21	2.4	nt
CCCc1nnc2c3c4c(sc3ncn12)CCCC4	2.0	-0.6
CC(C)NC(=O)N(C)C[C@H]1Oc2ccc(NC(=O)CCCCCC(=O)Nc3ccccc3N)cc2C(=O)N([C@@H](C)CO)C[C@@H]1C	-2.8	nt
C[C@H](CO)N1C[C@H](C)[C@@H](CN(C)S(=O)(=O)c2ccc(Cl)cc2)Oc2c(NC(=O)C3CC3)cccc2C1=O	0.2	nt
Cc1noc(C)c1NC(=O)Nc1ccc2c(c1)C(=O)N([C@@H](C)CO)C[C@@H](C)[C@@H](CN(C)Cc1ccc(Oc3ccccc3)cc1)O2	-0.4	0.6
CSc1nc2c(Cl)cccc2c2c1c(=O)[nH]n2C	-0.6	0.2
CCOC(=O)C(C(=O)Nc1cccc(C)n1)C1CCCCC1 (stereo not given)	0.0	0.6
C[C@@H]1CN([C@H](C)CO)C(=O)c2cc(NS(=O)(=O)c3cccs3)ccc2O[C@@H]1CN(C)C(=O)Nc1ccccc1	3.2	-0.5
COc1ccc(NC(=O)N(C)C[C@@H]2Oc3c(NC(=O)c4cc(C)nn4C)cccc3C(=O)N([C@@H](C)CO)C[C@H]2C)cc1	1.6	nt
Nc1c(C(=O)Nc2ccc3ccccc3c2)sc2nc3c(cc12)CCC3	17	nt
COc1ccc(NC(=C(C#N)C#N)C(F)(F)C(F)(F)F)cc1	12	nt
C[C@@H]1CN([C@@H](C)CO)C(=O)c2cc(NC(=O)C3CCCCC3)ccc2O[C@H]1CN(C)S(=O)(=O)c1ccc(Cl)cc1	1.7	0.8
C[C@H](CO)N1C[C@H](C)[C@H](CN(C)Cc2ccc(Cl)c(Cl)c2)Oc2c(NC(=O)NC3CCCCC3)cccc2C1=O	1.4	nt
CC1CN(C2=NCCN2S(=O)(=O)c2ccc(Cl)cc2)CC(C)O1 (stereo not given)	-3.0	0.9
O=C(/C=C/c1ccccc1)Nc1ccc2[nH]c(=O)[nH]c2c1	1.7	0.5
